High-throughput results deposited in PubChem BioAssay by several laboratories.
Mtb H37Rv: M. tuberculosis H37Rv growth inhibitors, H37Rv strain (AID 1626); M. tuberculosis H37Rv growth inhibition; higher % means a stronger effect; inhibition, % at 10 µM, or IC50 in µM where a hit was titrated; 220,000 compounds, 0.95% hits;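 active means confirmed in a dose series; inconclusive means inhibition above 80% but not taken into the dose series; inactive means below 80% or under 30% at every dose of the series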;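 further: bacteria incubated seven days before Alamar blue readout; 0% = bacteria only wells and 100% = bacteria with antibiotic wells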
Arbovirus anti: blocks arbovirus infection. arbovirus infection cell-based antiviral screen. inhibition, % at 10 µM. 200,000 compounds, 0.37% hits. AID 1251;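 active means inhibition from about 30%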;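 further: bluetongue infection of BSR cells; cell survival read as ATP light after 72 h; 0% = infected wells without compound and 100% = uninfected wells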
YopH inh: inhibitors of Yersinia enterocolitica YopH tyrosine phosphatase; fluorescence Ex485/Em525; inhibition, %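 (about 10 µM by stock and volumes)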; 140,000 compounds, 0.16% hits;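 active means inhibition of 50% or more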;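 further: controls were vehicle for no effect and minimum signal wells for full effect; inactives centre near -20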
Mtb betalactam: beta-lactam sensitization of Mtb H37Rv. M. tuberculosis H37Rv growth with meropenem, percent inhibition; hits of this screen are not shown here. AID 434955. inhibition, % at 25 µM. 330,000 compounds, 0.27% hits;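 active means about 74% or more and at least 40 points above the plate without the antibiotic, then above 30% in a dose series; inconclusive means first-round hits that could not be retested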;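 further: growth measured after seven days incubation then overnight dye step; 0% = bacteria only wells and 100% = bacteria with antibiotic; twin plates without the antibiotic show which effects depend on it; some results filed as inactive read as strong as hits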
RecA intein inh: inhibitors of M. tuberculosis RecA intein splicing; cell-free RecA intein splicing, fluorescence; 290,000 compounds, 0.75% hits; P9WHJ3; AID 2221; inhibition, %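 (about 9 µM by stock and volumes)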; in the data active means inhibition above about 30%; inconclusive means no clear call, values can overlap the other calls;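 further: 0% = vehicle wells and 100% = reference inhibitor control wells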
Target sequence (P9WHJ3 whole entry, looked up): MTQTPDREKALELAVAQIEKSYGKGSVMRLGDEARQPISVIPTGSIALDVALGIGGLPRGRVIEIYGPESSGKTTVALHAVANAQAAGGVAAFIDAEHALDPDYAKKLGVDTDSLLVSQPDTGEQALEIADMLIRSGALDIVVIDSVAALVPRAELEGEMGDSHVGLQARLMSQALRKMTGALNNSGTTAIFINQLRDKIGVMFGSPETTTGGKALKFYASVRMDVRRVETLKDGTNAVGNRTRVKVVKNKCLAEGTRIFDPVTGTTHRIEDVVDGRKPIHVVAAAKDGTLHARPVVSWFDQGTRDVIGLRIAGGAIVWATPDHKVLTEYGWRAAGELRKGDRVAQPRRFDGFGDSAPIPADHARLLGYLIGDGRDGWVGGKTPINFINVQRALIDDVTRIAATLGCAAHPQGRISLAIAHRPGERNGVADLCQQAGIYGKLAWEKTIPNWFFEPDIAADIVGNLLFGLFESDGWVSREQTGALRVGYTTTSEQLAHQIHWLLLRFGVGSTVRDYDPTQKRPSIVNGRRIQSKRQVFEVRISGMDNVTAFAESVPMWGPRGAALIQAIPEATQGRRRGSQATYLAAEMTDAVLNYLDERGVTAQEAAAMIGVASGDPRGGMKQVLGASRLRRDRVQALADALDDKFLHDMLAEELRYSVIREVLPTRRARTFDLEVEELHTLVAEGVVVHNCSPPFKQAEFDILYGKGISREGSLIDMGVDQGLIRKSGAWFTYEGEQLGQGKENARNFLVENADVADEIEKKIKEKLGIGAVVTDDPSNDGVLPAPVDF
Arbovirus anti repeat: second read-out of Arbovirus anti, no call of its own (marks repeat the call); inhibition, %; measured here: 10K subset replicate screen; many hits read low in the repeat;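 first of two repeat runs on a subset; 0% = infected and 100% = uninfected wells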
* = called active by the depositor.

Start of the data: the first 4 entries, ahead of the listing:
Cn1c(CN2CCOCC2)nc2cc(NC(=O)c3ccc(F)cc3)ccc21 was read as Mtb H37Rv -5%, Arbovirus anti -1, YopH inh 17, Mtb betalactam 7 and RecA intein inh -3.7.
`Cn1c(=O)[nH]c(=O)c2c1nc(N1CCCCCC1)n2Cc1cccc2ccccc12` gave Mtb H37Rv 2%, Arbovirus anti 2, YopH inh -41, Mtb betalactam -5 and RecA intein inh -0.3.
CCOC(=O)N1CCN(c2nc(N(c3ccccc3)c3ccccc3)nc(-n3ccnc3)n2)CC1 was read as Mtb H37Rv 8.9µM*, Mtb betalactam 78 and RecA intein inh 1.0.
COc1ccc([N+](=O)[O-])cc1NC(=O)C1CCCCC1C(=O)O (stereo not drawn) was read as Mtb H37Rv -6%, Arbovirus anti 12, YopH inh -19, Mtb betalactam 0 and RecA intein inh -0.7.

Results, previewed entries included:
Cn1c(CN2CCOCC2)nc2cc(NC(=O)c3ccc(F)cc3)ccc21 was read as Mtb H37Rv -5%, Arbovirus anti -1, YopH inh 17, Mtb betalactam 7 and RecA intein inh -3.7.
`Cn1c(=O)[nH]c(=O)c2c1nc(N1CCCCCC1)n2Cc1cccc2ccccc12` gave Mtb H37Rv 2%, Arbovirus anti 2, YopH inh -41, Mtb betalactam -5 and RecA intein inh -0.3.
CCOC(=O)N1CCN(c2nc(N(c3ccccc3)c3ccccc3)nc(-n3ccnc3)n2)CC1 was read as Mtb H37Rv 8.9µM*, Mtb betalactam 78 and RecA intein inh 1.0.
COc1ccc([N+](=O)[O-])cc1NC(=O)C1CCCCC1C(=O)O (stereo not drawn) was read as Mtb H37Rv -6%, Arbovirus anti 12, YopH inh -19, Mtb betalactam 0 and RecA intein inh -0.7.
`Cc1ccc(NC(=O)CSc2nc3ncc(Cl)cc3[nH]2)c(C)c1` gave Mtb betalactam 0 and RecA intein inh -1.3.
For O=C(Nc1ccc(Oc2ccsc2C(=O)O)cc1)c1ccccc1F the results were Mtb betalactam -4 and RecA intein inh 1.2.
For Cc1cc(CN(C)C(=O)c2ccc(OC3CCN(S(=O)(=O)N(C)C)CC3)cc2)n[nH]1 the results were Mtb betalactam -1 and RecA intein inh -4.6.
Screening Cc1ccc(-c2cn(S(=O)(=O)c3cccc4nsnc34)nc2N)cc1 returned Mtb H37Rv 8%, Arbovirus anti -13, YopH inh -47, Mtb betalactam 3 and RecA intein inh 6.0.
Screening O=C(C1=COCCO1)N(Cc1nnc(-c2ccc(Cl)cc2)o1)C1CC1 returned Mtb betalactam 2 and RecA intein inh -2.4.
Screening Cc1cc2nc3c(=O)n(C4CCCCC4)c(=O)[nH]c3nc2cc1N returned Mtb H37Rv -2%, Arbovirus anti -3 and YopH inh -12.
Screening O=C(CCC(=O)Nc1ccccc1)N/N=C/c1ccccc1F returned Mtb H37Rv -5%, Arbovirus anti -3, Mtb betalactam 0 and RecA intein inh -0.5.
`CCc1nc(SCC(=O)Nc2sc(C)c(C)c2C(=O)OC)c2ccccc2n1` gave Mtb H37Rv -7%, Arbovirus anti 3 and YopH inh -33.
For CCOc1ccc(S(=O)(=O)NNC(=O)c2cc3ccccc3o2)cc1 the results were Mtb H37Rv 6%, Arbovirus anti 4, YopH inh -23, Mtb betalactam 8 and RecA intein inh -3.0.
Screening CC1CC(OC(=O)c2ccccc2)CC(C)N1C (stereo not drawn) returned Mtb H37Rv -2%, Arbovirus anti -2, YopH inh -11, Mtb betalactam 2 and RecA intein inh -4.0.
COc1ccc(CNc2cc(C)nc3ncnn23)c(OC)c1 was read as Mtb H37Rv 1%, Arbovirus anti 16, YopH inh -48, Mtb betalactam -9 and RecA intein inh -1.3.
Clc1ccc(-c2nnc(-c3ccccc3)c(-c3ccccc3)n2)cc1 was read as Mtb H37Rv 16%, Mtb betalactam 7 and RecA intein inh 7.1.
`CC(C)C(=O)N1CCC(CN=CC2=C(O)CC(C)(C)CC2=O)CC1` gave Mtb H37Rv -7%, Arbovirus anti 3, YopH inh -17, Mtb betalactam -8 and RecA intein inh -0.7.
CC(C)CNC(=O)[C@H](Cc1ccccc1)NC(=O)c1ccco1 was read as Mtb H37Rv 2%, Arbovirus anti 2, YopH inh 21, Mtb betalactam 1 and RecA intein inh -5.5.
Screening Cc1c(Cl)cccc1NC(=O)CNCc1ccccc1F returned Mtb H37Rv 6%, Arbovirus anti 0, Mtb betalactam -10 and RecA intein inh 11.
CCc1ccc(-c2csc3ncn(Cc4ccc(C(=O)O)cc4)c(=O)c23)cc1 was read as Mtb H37Rv -4%, Arbovirus anti 0, Mtb betalactam 2 and RecA intein inh 2.3.
`CCOc1ccc(NC(=O)CC2C(=O)N(CC)C(=S)N2CCNC(C)=O)cc1` (stereo not drawn) gave Mtb H37Rv -9%, Arbovirus anti 0, YopH inh -34, Mtb betalactam -3 and RecA intein inh 1.5.
For O=S(=O)(NC(=NCc1ccccc1)c1ccccc1)c1ccccc1 the results were Mtb betalactam -2 and RecA intein inh -0.2.
`COc1cc(NS(=O)(=O)c2ccc3c(c2)C(C)(C)C(=O)N3C)cc(OC)c1` gave Mtb betalactam inconclusive and RecA intein inh -0.1.
Screening Cc1cc2ncn(S(=O)(=O)N(C)C)c2cc1C returned Mtb H37Rv -7%, Arbovirus anti -1, YopH inh 5, Mtb betalactam -9 and RecA intein inh -3.3.
Screening CCCN(CCC)c1ccc(/C=N/NC(=O)CN2CCOCC2)cc1 returned Mtb H37Rv 2%, Arbovirus anti 7, Mtb betalactam 1 and RecA intein inh 1.3.
For CC1C(=O)OC(c2ccc(Br)cc2)C(C)(C)C1=O (stereo not drawn) the results were Mtb H37Rv 4%, Mtb betalactam -4 and RecA intein inh 1.3.
COc1ccc(/C=N/S(=O)(=O)c2cccs2)cc1 was read as Mtb H37Rv -7%, Arbovirus anti 4, YopH inh -22, Mtb betalactam 7 and RecA intein inh -2.3.
For COc1ccc(S(=O)(=O)N2CCN(C(=O)COc3ccccc3)CC2)cc1 the results were Mtb H37Rv -12%, Arbovirus anti 8, Mtb betalactam -1 and RecA intein inh -0.7.
For CC(C)(C)NC(=O)CCN(/N=C/c1ccccc1F)C1=NS(=O)(=O)c2ccccc21 the results were Mtb betalactam 5 and RecA intein inh -1.3.
COC(=O)CNC(=O)C1CCC(CNS(=O)(=O)c2cccc3nsnc23)CC1 (stereo not drawn) was read as Mtb betalactam 4 and RecA intein inh -7.7.
Screening Cc1ccc2c(c1)N/C(=C(\C=C(/Cl)[N+](=O)[O-])[N+](=O)[O-])N2 returned Mtb H37Rv 6%, Arbovirus anti 4, Mtb betalactam 12 and RecA intein inh -1.7.
`CC1CCN(C(=O)c2ccc3c(c2)OCCO3)CC1` gave Mtb H37Rv -8%, Arbovirus anti 0, YopH inh -4 and Mtb betalactam -5.
Screening Cc1cccc(NC(=O)C2CCN(S(=O)(=O)c3ccc4c(c3)NC(=O)CO4)CC2)c1C returned Mtb betalactam 3 and RecA intein inh -3.8.
Screening COc1ccc(N2C(=O)C3ON(C4SC(=S)N(C)C4(C)C)C(c4ccc([N+](=O)[O-])cc4)C3C2=O)cc1 (stereo not drawn) returned Mtb H37Rv -17%, Arbovirus anti 2, YopH inh -31, Mtb betalactam 0 and RecA intein inh -1.4.
`COc1cccc(CNC(=O)CCNC(=O)Cn2ccc3ccccc3c2=O)c1` gave Mtb H37Rv 2%, Arbovirus anti 2, YopH inh -31, Mtb betalactam -2 and RecA intein inh 4.1.
`COC(=O)C1CCN(S(=O)(=O)Cc2ccccc2Cl)CC1` gave Mtb betalactam -15 and RecA intein inh -1.8.
`O=C(c1ccccc1Cl)N(Cc1ccccc1F)N1C(=O)CCCC1=O` gave Mtb H37Rv 7%, Arbovirus anti 4, Mtb betalactam -10 and RecA intein inh -0.1.
For Cc1ccc(-c2cc(C(=O)N3N=C(C(F)F)CC3(O)C(F)F)c3ccccc3n2)cc1C (stereo not drawn) the results were Mtb H37Rv 34%, Arbovirus anti -33, YopH inh 17, Mtb betalactam 93 and RecA intein inh 9.8.
Screening O=C(c1csc2ccccc12)N1CCCCCC1 returned Mtb H37Rv -6%, Arbovirus anti 3, YopH inh -25, Mtb betalactam -8 and RecA intein inh 3.5.
Screening CCOc1cccc(-c2nc3c(s2)CCc2onc(-c4cccc([N+](=O)[O-])c4)c2-3)c1 returned Mtb betalactam -1 and RecA intein inh -2.1.
`c1ccc2c(c1)Cn1nnnc1-2` gave Mtb H37Rv 0%, Arbovirus anti 8, YopH inh -33, Mtb betalactam -1 and RecA intein inh -2.1.
Screening Cc1ccc(-c2nc3ccc(Cl)cc3n2OC(C)C(=O)O)cc1 (stereo not drawn) returned Mtb H37Rv 2%, Arbovirus anti 3, Mtb betalactam 6 and RecA intein inh -0.5.
For CSc1nnc2c3c4c(sc3nc(-n3nc(C)cc3C)n12)COC(C)(C)C4 the results were Mtb H37Rv 8%, Arbovirus anti -3, YopH inh -54 and RecA intein inh 1.6.
For OCCCC1CCCN(Cc2cn[nH]c2-c2ccc(F)cc2F)C1 (stereo not drawn) the results were Mtb H37Rv -1%, Arbovirus anti 15, Mtb betalactam 10 and RecA intein inh 1.8.
Screening COc1ccc(/C(O)=C2/C(=O)C(=O)N(c3ccccn3)C2c2ccc(F)cc2)cc1 (stereo not drawn) returned Mtb betalactam 3 and RecA intein inh -2.7.
O=[N+]([O-])c1ccccc1Nc1cccnc1 was read as Mtb betalactam 10 and RecA intein inh 1.7.
`COc1ccccc1-c1c(NC(=O)C(C)C)n(C)c2ccccc2c1=O` gave Mtb H37Rv 0%, Mtb betalactam -16 and RecA intein inh 0.0.
CCc1n[nH]c(=S)n1N=C1CCC(C)CC1 (stereo not drawn) was read as Mtb H37Rv 1%, Arbovirus anti -2, Mtb betalactam -10 and RecA intein inh 1.0.
CCOC(=O)Cc1cc(=O)n2[nH]c(C)cc2n1 was read as Mtb H37Rv 0%, Arbovirus anti -3, YopH inh 9, Mtb betalactam 4 and RecA intein inh -1.5.
For COCCN=C1NC(=O)C(CC(=O)Nc2cccc(Cl)c2C)S1 (stereo not drawn) the results were Mtb H37Rv -3%, Arbovirus anti 8, Mtb betalactam -4 and RecA intein inh -1.9.
`CN1CCC(CN)(N2CCN(c3ccccc3)CC2)CC1` gave Mtb betalactam -8 and RecA intein inh 0.4.
`O=c1c2ccccc2nc(-c2cccs2)n1-c1cnccn1` gave Mtb H37Rv 3%, Arbovirus anti -3, YopH inh -41, Mtb betalactam -1, RecA intein inh 2.1 and Arbovirus anti repeat 2.
O=c1c2ccccc2c2ccccc2c(=O)n1Cc1cccnc1 was read as Mtb H37Rv -4%, Arbovirus anti 6, YopH inh -8, Mtb betalactam -5 and RecA intein inh 0.2.
For Oc1ccc(/C=N/Nc2nccnc2Cl)cc1 the results were Mtb H37Rv 3%, Arbovirus anti -9, YopH inh -13, Mtb betalactam -6 and RecA intein inh 3.0.
Screening N#Cc1ccccc1OCC(=O)C1CC1 returned Mtb H37Rv 3%, Mtb betalactam -7 and RecA intein inh 3.3.
`CCSc1nc(O)c(CC)c(=O)n1C(C)CC` (stereo not drawn) gave Mtb H37Rv 6%, Arbovirus anti 15, YopH inh -50, Mtb betalactam -1, RecA intein inh -2.9 and Arbovirus anti repeat 5.
Screening CC(=O)N1N=C(c2ccco2)CC1c1cc2cc(C)ccc2nc1Cl (stereo not drawn) returned Mtb H37Rv -10%, Mtb betalactam -4 and RecA intein inh 0.9.
For NS(=O)(=O)c1ccc(NC(=S)N2CCN(C(=O)C3CCCO3)CC2)cc1 (stereo not drawn) the results were Mtb betalactam -5 and RecA intein inh -4.3.
For Nn1cnnc1N/N=C/c1ccc(Cl)cc1Cl the results were Mtb betalactam 3 and RecA intein inh 2.6.
`CCOC(=O)C1=C(C)N(c2ccccc2)C(=O)/C1=C\c1ccc(O)c(OC)c1` gave Mtb H37Rv -3%, Mtb betalactam 0 and RecA intein inh 6.5.
Screening Cc1cnc(C)c(N2CCN(Cc3cn(C)nc3-c3cccc(Cl)c3)CC2)n1 returned Mtb H37Rv -6%, Arbovirus anti 2, Mtb betalactam 4 and RecA intein inh 1.7.
For CSCCCNC(=S)Nc1ccc(N2CCOCC2)cc1N1CCOCC1 the results were Mtb H37Rv -2%, Arbovirus anti 7, Mtb betalactam -2 and RecA intein inh -1.2.
Screening CS(=O)(=O)N(CC(=O)O)Cc1cccc(CN(CC(=O)O)S(C)(=O)=O)c1 returned Mtb betalactam 9 and RecA intein inh -0.7.
For Cc1ccc(Nc2nc3c(c(=O)[nH]2)CCCC3)cc1 the results were Mtb H37Rv 0%, Arbovirus anti 11, YopH inh -13, Mtb betalactam -2 and RecA intein inh -0.6.
For CCN(CC)CCn1c(NC(=O)c2ccc(Cl)cc2)nc2ccccc21 the results were Mtb H37Rv 58%, Arbovirus anti -15, YopH inh -20, Mtb betalactam 100 and RecA intein inh 2.2.

The list is partial; the hit share may differ from the screen's.
